HIV Env fusion: inhibitors of HIV-1 Env-driven cell-cell fusion, primary screen, HeLa-JRFL effector, CEM21 target cells, luciferase; AID 651610, 2012; 360,000 tested, 1.1% active; inhibition, % at 12.3 µM;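 active = mean replicate inhibition score of at least 50 and every replicate individually at or above 50; inconclusive = only one of the two criteria met; inactive = mean below 50 and not all replicates reaching 50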;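 also: 0% = plate neutral controls and 100% = maraviroc near 300 nM; one replicate is shown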
CSC inhib: cancer stem cell viability inhibitors, primary screen, luminescence | 300,000 tested, 1.1% active | inhibition, % at 7.5 µM | AID 2717, 2010 | cancer stem cell-like cells viability;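 active = mean at 75% or more and at least half the replicates too; inconclusive = mean and replicates disagree; tested in HMLE shEcad cells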;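 also: 0% = median of negative and 100% = median of positive control wells; the first replicate is given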
PABP polyA inh: PABP poly(A) RNA binding inhibitors, primary screen, biochemical, fluorescence polarization, uHTS | AID 2014, 2009 | Polyadenylate-binding protein 1 (Homo sapiens), P11940 | inhibition, % at 35 µM | 290,000 tested, 1% active;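 active = 50% or more with normal probe brightness, or confirmed in later tests; inconclusive = above 50% with abnormal brightness, or retests that disagree; inactive = below 50% or failed in later tests; about a fifth of its hits are not listed in these tables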;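 also: calls also rest on retests at 20 µM and on dose response follow-up; controls were probe without protein and protein plus probe with vehicle; some compounds called inactive have numbers as strong as hits; many hits fall short of the cut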
Rce1 inhib: yeast Rce1p protease inhibitors, primary screen, biochemical, fluorescence, cell-free homogeneous; CAAX prenyl protease 2 (Saccharomyces cerevisiae (strain ATCC 204508 / S288c)), Q03530; yeast membranes, quenched prenylated peptide cleavage fluorescence; calls only; 290,000 tested, 0.27% active; AID 2563, 2010;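 active = fall in fluorescence gain of 50% or more versus controls, with final raw signal at or below 3038400; inconclusive = same 50% fall but final raw signal above 3038400; inactive = fall in fluorescence gain under 50%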;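 also: plate controls were neutral control wells for no effect and wells lacking membranes for full effect; tested at 10 µM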
Target sequence (Q03530 whole entry, looked up): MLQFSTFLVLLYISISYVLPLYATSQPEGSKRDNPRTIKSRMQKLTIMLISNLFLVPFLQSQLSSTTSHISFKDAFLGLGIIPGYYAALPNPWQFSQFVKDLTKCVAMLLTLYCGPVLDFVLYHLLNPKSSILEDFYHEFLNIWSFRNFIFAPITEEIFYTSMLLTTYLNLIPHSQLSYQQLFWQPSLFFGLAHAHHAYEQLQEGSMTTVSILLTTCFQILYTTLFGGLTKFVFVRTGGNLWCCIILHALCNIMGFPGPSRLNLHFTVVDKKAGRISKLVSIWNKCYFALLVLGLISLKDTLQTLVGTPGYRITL
Yeast UUG start: modulators of yeast start codon fidelity, primary screen, whole organism, S. cerevisiae, single point, plate reader; S. cerevisiae UUG-firefly luciferase reporter, luminescence/redox ratio; 350,000 tested, 0.13% active; activity score, % at 18.7 µM;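 active = replicate mean at a twofold rise or more, about +100% in these data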;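 also: firefly luciferase made from a UUG start codon reports start codon fidelity; reporter light over untreated wells divided by growth signal over untreated wells; some hits fall short of that in this replicate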
eIF4H FP inh: human eIF4H binding inhibitors, primary screen, translation initiation inhibitor project, biochemical, uHTS, fluorescence polarization; eIF4H fluorescence polarization binding assay; inhibition, % at 35 µM; 290,000 tested, 0.94% active; AID 2012, 2009;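 active = 50% or more with normal probe brightness, or confirmed in later tests; inconclusive = above 50% with abnormal brightness, or retests that disagree; inactive = below 50% or failed in later tests; about a fifth of its hits are not listed in these tables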;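 also: calls also rest on retests at 20 µM and on dose response follow-up; 0% = protein and probe with vehicle and 100% = probe without protein; strong numbers were not always called active; many hits fall short of the cut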
MT1-MMP act inh: blockers of MT1-MMP proenzyme processing, primary screen, HT1080 RFP-PRO-GFP cells, GFP/RFP fluorescence; Matrix metalloproteinase-14 (Homo sapiens), P50281; GFP/RFP ratio fluorescence, overnight; percent of plate control window, DMSO zero; GFP/RFP ratio change, % at 20 µM; 360,000 tested, 0.061% active;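 active = GFP/RFP ratio change of at least 30% with cell ATP level not reduced by more than half and red fluorescence within 50% of control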; also: strong numbers were not always called active
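Assay system: RFP-PRO-GFP reporter HT1080 cells; read-out basis: GFP/RFP fluorescence ratio; benchmarks: DMSO wells and RFP-L50D-GFP cells; doses: 20 µM single dose, 1% DMSO; schedule: overnight cell settling, then overnight compound exposure, 37 °C, 5% CO2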
MT1-MMP act inh RFP: further read-out of MT1-MMP act inh, marked with its call; RFP signal change, %; measured here: RFP expression control read;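 0 = vehicle wells; hits needed this value within 50% of zero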
An asterisk follows results filed as active; i = inactive; u = inconclusive; x = not tested or not shown. Only part of the results is shown; rates above refer to the full screens.

SMILES | HIV Env fusion | CSC inhib | PABP polyA inh | Rce1 inhib | Yeast UUG start | eIF4H FP inh | MT1-MMP act inh | MT1-MMP act inh RFP
CCc1cccc2c(C=C(C#N)C#N)cn(CC(=O)N3CCCC3)c12 | x | -0.1 | 2.6 | i | -20.9 | -2.7 | 6.4 | 3.5
Fc1ccccc1Cc1noc(CN2CCN(Cc3ccc4c(c3)OCO4)CC2)n1 | 5.8 | 11.3 | -8.3 | i | -8.4 | -7.5 | -3.7 | 3.1
CCOC(=O)c1ccc(NC(=S)N(CCCN2CCCCCC2)Cc2ccco2)cc1 | 18.0 | -4.5 | 13.1 | i | -13.1 | 3.5 | -1.5 | 1.8
Cc1ccc(NC(=O)CN(C)Cc2c(O)ccc3ccccc23)cc1 | 3.0 | -8.3 | 6.3 | i | x | -6.7 | x | x
CN(C)c1ccc(C(CNS(=O)(=O)c2ccc3ccccc3c2)c2c[nH]c3ccccc23)cc1 (stereo not given) | -0.3 | 52.9 | -6.4 | i | x | -8.3 | 1.3 | 6.2
CCOC(=O)Cc1cc(=O)[nH]c(/N=C(\N)Nc2ccc(OC)cc2)n1 | 15.8 | 0.0 | -5.5 | i | 2.2 | 15.1 | -3.6 | -1.9
COc1ccc([C@H]2CC(=O)C=C(c3ccc(NC(C)=O)cc3)C2)cc1OC | 12.7 | 9.8 | x | x | -10.1 | x | -6.6 | -2.0
CCCCCCc1cc2cc(/C(N)=N/NC(=O)c3ccncc3)c(=O)oc2cc1O | x | 38.9 | x | x | -17.5 | x | -90.0 | -2.1
CCn1cc(-c2cc(C(=O)O)c3ccccc3n2)c(C)n1 | x | -12.8 | -3.5 | i | -11.7 | 2.8 | -0.8 | 1.9
Cc1cc(C)cc(NC(=O)C2C3C=CC4(O3)C2C(=O)N(CCCN2CCCC2)C4C(=O)NC2CCCC(C)C2C)c1 (stereo not given) | 3.3 | x | 0.1 | i | 8.0 | -1.5 | -0.8 | -1.8
CCN(CC)CCCN1C(=O)c2oc3ccccc3c(=O)c2C1c1cc(OC)ccc1OC (stereo not given) | -40.8 | -2.0 | 0.2 | i | -16.0 | -0.9 | -4.4 | -0.5
Cc1ccc(C(=O)c2cc([N+](=O)[O-])ccc2N2CCCCC2)c(C)c1 | -41.3 | -5.0 | 5.2 | i | x | -12.0 | 6.6 | -6.3
CCCC(=O)NC(=S)Nc1cccc(Cl)c1N1CCCCC1 | 26.0 | x | 0.6 | i | -24.0 | -8.0 | -7.4 | -5.6
O=C(O)CSCCCC(=O)Nc1ccc(Br)cc1 | x | -6.5 | -10.3 | i | -12.0 | -2.9 | 0.6 | 2.8
NC(=O)C1=C[C@@H](c2ccc(C(F)(F)F)cc2)C[C@@H](OCc2ccc(CO)cc2)O1 | 29.4 | -4.3 | 1.6 | i | -0.2 | -13.0 | -0.8 | -0.3
COC(=O)C[C@H]1c2cc(F)ccc2S(=O)(=O)N1c1ccc(N(C)C)cc1 | -13.6 | -6.6 | x | i | -28.9 | x | -0.9 | -1.4
Clc1ccc(OCCOCCN2CCc3ccccc3C2)c(Cl)c1 | 26.2 | 42.3 | 5.6 | i | x | -0.4 | 3.3 | 2.7
CCn1c(=O)n(CC(=O)Nc2cc(OC)ccc2OC)c(=O)c2ccccc21 | x | 2.0 | -5.0 | i | -5.9 | -5.8 | 0.4 | -0.1
Cc1cccc(C(=O)N(CC(=O)Nc2sc(C)c(C)c2C(N)=O)C2CCCC2)c1 | 7.6 | -5.3 | 7.7 | i | -1.8 | 4.9 | -0.5 | -2.1
Clc1nc2c(-c3ccccc3)nnn2c2ccccc12 | 19.4 | 71.0 | 8.5 | i | x | 1.8 | -7.2 | -6.6
C/C(=C\C(=O)c1ncc(C(F)(F)F)cc1Cl)N(C)C | 2.1 | -7.5 | -5.9 | i | x | 5.0 | -3.1 | -0.5
Cc1cc(C)nc(N2CCC(C(=O)Nc3cccc(C(F)(F)F)c3)CC2)n1 | 1.9 | -6.2 | 2.1 | i | -15.0 | -8.6 | 6.9 | -3.0
CCN(CC)CCCN(Cc1cc2cc3c(cc2[nH]c1=O)OCO3)C(=S)Nc1ccccc1OC | -35.8 | -4.0 | 6.2 | i | x | 3.5 | -13.0 | -2.3
CCOc1ncccc1C(=O)OCC(=O)N(CC(C)C)C1CCS(=O)(=O)C1 (stereo not given) | 25.4 | 13.8 | 9.1 | i | -4.8 | 8.0 | 1.9 | 3.8
COc1cccc(C(C(=O)NC2CCCC2)N(C(=O)c2ccco2)C2CC2)c1OC (stereo not given) | x | 10.1 | 1.2 | i | x | -2.5 | 0.1 | 9.8

3 entries from above, ordered by the value under MT1-MMP act inh, highest first:
Molecule,MT1-MMP act inh
Cc1ccc(C(=O)c2cc([N+](=O)[O-])ccc2N2CCCCC2)c(C)c1,6.6
COc1cccc(C(C(=O)NC2CCCC2)N(C(=O)c2ccco2)C2CC2)c1OC (stereo not given),0.1
Cc1cc(C)cc(NC(=O)C2C3C=CC4(O3)C2C(=O)N(CCCN2CCCC2)C4C(=O)NC2CCCC(C)C2C)c1 (stereo not given),-0.8

(cont.)
SMILES | HIV Env fusion | CSC inhib | PABP polyA inh | Rce1 inhib | Yeast UUG start | eIF4H FP inh | MT1-MMP act inh | MT1-MMP act inh RFP
O=C(CCc1nnc2ccc(N3CCCCC3)nn12)NCc1ccco1 | -8.4 | -4.8 | -11.2 | i | -5.6 | -5.8 | -0.7 | -2.5
Cc1nn(Cc2ccc(F)cc2)c2sc(C(=O)Nc3nccs3)cc12 | 4.4 | 37.4 | -6.2 | i | x | -2.2 | 0.9 | -3.9
CCOC(=O)c1c(NC=O)sc2c1CCC2 | x | x | 8.1 | i | -14.2 | 2.4 | 3.0 | 2.8
CCOC(=O)CN(Cc1ccccc1)S(=O)(=O)c1ccc(NC(C)=O)cc1 | x | -9.4 | -11.2 | i | -5.6 | -10.2 | -20.5 | 3.7
CC(=O)CCC(=O)OCC(=O)Nc1ccc(SC(F)F)cc1 | 15.5 | -11.2 | 2.7 | i | x | -7.0 | -2.9 | -0.7
COc1ccc(CCN(C)C(=S)Nc2ccc(SC(F)F)cc2)cc1OC | 41.8 | 9.3 | 12.1 | i | x | -5.9 | 3.9 | -2.7
CCCSc1ncnc2c1oc1ccccc12 | x | 2.5 | 4.6 | i | -10.5 | -1.4 | -2.5 | 2.5
CC(=O)c1cccc(NC(=O)C2CCCN(S(=O)(=O)c3cccc4cccnc34)C2)c1 (stereo not given) | 5.6 | -22.0 | 13.1 | i | -15.9 | -11.7 | -3.5 | -7.2
O=C(N/N=C/c1cccc(Oc2ccccc2)c1)c1ccncc1 | 15.4 | 9.5 | -8.9 | i | x | -3.5 | -2.3 | 0.5
COc1cccc(C(=O)N/N=C(\C)c2cccc(NC(=O)c3ccc(F)cc3)c2)c1OC | -44.3 | 12.2 | -0.8 | i | -6.7 | -2.0 | 2.1 | 4.0
O=C(NCCCN1CCCCCC1)c1ccc(N2CCCC2=O)cc1 | x | 7.3 | -4.9 | i | -15.2 | 0.1 | -0.3 | 2.3
CC(C)(C)CC(=O)Nc1ccc(S(=O)(=O)NC2=NCCCCC2)cc1 | 4.0 | 3.7 | x | x | -3.8 | x | -1.5 | 1.5
CN1C2C=C3C(C#N)=C(N)C(C#N)(C#N)C(c4ccc(Br)cc4)C3C1CC2 (stereo not given) | -20.2 | -12.3 | 11.0 | x | -20.4 | 36.4 | -8.6 | 3.9
O=C(/C=C/c1ccccc1)Nc1cc(NC(=O)/C=C/c2ccccc2)cc(C(=O)O)c1 | 1.4 | -5.3 | 24.4 | i | -7.4 | -1.0 | -3.0 | -2.3
COc1ccccc1N=Nc1c(O)[nH]c2ccc(Br)cc12 | 4.4 | -2.6 | u | i | -0.7 | u | -40.6 | 16.3
O=C(NCCN1CCOCC1)c1ccc2c(c1)N(Cc1ccccc1)C(=O)c1ccccc1S2 | -12.1 | -2.9 | x | i | -9.4 | x | 0.7 | 5.2
CCCC(=O)Nc1ccc(C(=O)COC(=O)c2cc(C)oc2C)cc1 | -3.8 | x | x | x | -16.1 | x | -0.8 | -4.0
Cc1oc(C(N)=O)nc1-c1ccccc1 | -1.3 | -13.0 | -0.4 | i | x | -12.4 | -1.2 | 1.6
COc1cc(C(=O)N/N=C/c2ccc3c(c2)c2ccccc2n3C)ccc1O | -104.4 | 39.9 | -1.0 | i | -7.5 | 8.6 | 3.6 | -2.8
CCOc1ccccc1CNC(=O)c1nn(C)c2c1CS(=O)(=O)c1ccccc1-2 | 0.8 | 16.8 | x | i | -5.6 | x | 0.1 | -2.6
O=C(N[C@@H](Cc1ccc(O)cc1)C(=O)O)c1ccncc1 | -7.4 | -16.2 | x | i | 7.5 | x | -0.4 | 1.1
CCN(CC)S(=O)(=O)c1ccc2nc(CCl)[nH]c2c1 | -3.0 | -8.2 | -21.9 | i | -16.3 | -2.5 | -0.6 | -2.4
CCN(C(=O)CN1CCc2ccccc21)c1c(N)n(Cc2ccccc2)c(=O)[nH]c1=O | -0.4 | -14.4 | 18.7 | i | x | 2.6 | -5.6 | 5.7
CC1(C)Cc2nc3sc(C(=O)O)c(N)c3cc2CS1 | x | -2.8 | 9.1 | i | x | 38.0 | x | x
COc1ccc(CC(=O)N(C)CC(=O)Nc2cccc(F)c2)cc1S(=O)(=O)N1CCOCC1 | -28.2 | -18.4 | 40.9 | i | -15.4 | 4.1 | -0.6 | 5.3
SMILES | HIV Env fusion | CSC inhib | PABP polyA inh | Rce1 inhib | Yeast UUG start | eIF4H FP inh | MT1-MMP act inh | MT1-MMP act inh RFP
CCOC(=O)C=C1CCN(c2ncc(C(F)(F)F)cc2Cl)CC1 | -17.3 | x | 9.4 | i | 8.3 | -7.3 | -0.4 | 0.7
Cc1ccc(S(=O)(=O)N(C)c2ccc(C(=O)NCC3CCCO3)cc2)cc1 (stereo not given) | -49.1 | -1.0 | -5.0 | i | -7.7 | -7.6 | 1.1 | 0.5
CC(=O)c1[nH]c(C)c(C(=O)N2CCCC(Nc3ccc(C(C)C)cc3)C2)c1C (stereo not given) | 9.8 | x | -6.1 | i | -3.1 | -6.4 | -0.8 | -3.1
CC(C)CN1CN(Cc2ccccc2)CNC1=S | x | 1.6 | -6.4 | i | x | -7.7 | -2.6 | 2.3
COc1cc2nc(N(C)C)nc(N)c2cc1OC | x | -12.6 | -3.6 | u | -2.4 | -9.4 | 1.1 | 2.9
S=c1[nH]nc(CSc2nc3ccccc3s2)n1C1CCCCC1 | x | -2.7 | 11.0 | i | -20.4 | 5.7 | -2.6 | -6.3
Cc1ccc(SCCC(=O)NCc2ccco2)cc1 | x | -1.3 | -2.7 | i | -10.2 | 1.1 | 24.4 | 5.5
COc1ccc(CNCCCn2cnc(C(=O)Nc3ccc(C)c(C)c3)n2)cc1 | 14.3 | x | x | x | -14.6 | x | 4.3 | 1.8
O=C1CC(c2ccc(Cl)c([N+](=O)[O-])c2)c2ccc3ccccc3c2N1 (stereo not given) | x | 0.3 | 6.3 | i | -15.0 | 10.1 | -4.4 | -14.9
CCN(Cc1ccccc1)C(=O)Cn1cc2c(n1)CCCC2 | -24.6 | 2.0 | -6.0 | i | -12.9 | 3.7 | -5.0 | -1.3
O=C(N/N=C/c1ccc([N+](=O)[O-])o1)C1CC1 | 2.7 | x | -2.8 | i | x | u | -1.8 | 1.8

Screening results (PubChem BioAssay)
